ClpP mod: qHTS Assay for Activators of ClpP; AID 651965, 2013; 340,000 compounds, 1.9% hits; Potency, µM (titrated, usually from 57.5 µM), without a hit: at the top dose activity change, negative = active; purified B. subtilis ClpP, FRET peptide cleavage, 20 min; active = well fitted falling curve with a large enough effect; inconclusive = small, poorly fitted or top-dose-only effect; inactive = no such curve, though single readings can be large or run the other way; also: the source files actives as falling curves though it sought activators and does not explain the sign; nearly all actives have a fitted effect of over 65% in size; many hits overshoot -100%
Target sequence (P80244 whole entry, looked up): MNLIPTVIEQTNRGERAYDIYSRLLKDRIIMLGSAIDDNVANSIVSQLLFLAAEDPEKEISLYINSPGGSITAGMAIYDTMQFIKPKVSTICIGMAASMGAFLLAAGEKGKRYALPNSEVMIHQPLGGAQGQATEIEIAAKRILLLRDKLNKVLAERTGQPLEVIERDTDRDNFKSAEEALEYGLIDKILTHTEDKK
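FRET quenching reversal measured ClpP activation: 10 microg/mL B. subtilis ClpP at pH 8 with the FRET-FV decapeptide, read at 430 nm after 320 nm excitation. The 20-min minus 0-min signal was scaled between DMSO/no-enzyme wells and ADEP (5.8 microM final).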
Active calls of the source: *. Potency is read from the fitted curve at half-maximal effect. Some of the compounds tested, so the mix of outcomes need not match the whole.

How did CC1(C(=O)Nc2ccccc2Br)CCN1C(=O)CC1CC1 (stereo not drawn) do in these assays?
ClpP mod: -0.6%

What do the screens show for `CCC(CC)C(=O)N(C)c1c(C)nc2c(OCc3ccc(C(F)(F)F)cc3)cccn12`?
ClpP mod: 0.6%

What do the screens show for `CCOC1=C2[C@@H](CN(S(=O)(=O)c3ccc(C)cc3)[C@H]2c2ccccc2)[C@H]2C(=O)N(Cc3ccccc3)C(=O)[C@H]2C1`?
ClpP mod: -2.6%

How did CCC(=O)N1CCCC1(C)C(=O)Nc1ccc2nc(C)ccc2c1 (stereo not drawn) do in these assays?
ClpP mod: 4.3%

How did CCCCC(=O)N(C)c1c(C)nc2ccc(C(=O)N(C)CCN(C)C)cn12 do in these assays?
ClpP mod: -2.0%

What do the screens show for `CC1ON=C(c2cccc3ccccc23)N(C)C1=O` (stereo not drawn)?
ClpP mod: -0.5%

Results for O=C(NC(c1ccccc1)c1ccc2ccccc2n1)C1CCN(CCOc2ccc(Cl)cc2)CC1 (stereo not drawn) ?
ClpP mod: -4.1%

Results for C(=C\c1c[nH]c2ccccc12)/c1ccnc2ccccc12 ?
ClpP mod: -0.1%

Results for CCCCOCCCNC(=O)C[C@@H]1C[C@@]2(C(=O)OCC)CCCC=C2N(Cc2ccc(Cl)cc2Cl)C1=O ?
ClpP mod: 0.5%

Results for O=C1C=C(OCCF)CC(c2cccc(Cl)c2)O1 (stereo not drawn) ?
ClpP mod: -0.4%

How did Cc1ccc2c(c1)CCC2=O do in these assays?
ClpP mod: 1.6%

How did C/C=C(\C)NNC(=O)Cc1ccc(OC)cc1 do in these assays?
ClpP mod: -2.8%

What do the screens show for `N#CCCN(Cc1ccccc1)C(C(=O)NC1CCCCC1)C1CC1` (stereo not drawn)?
ClpP mod: -1.0%

What do the screens show for `CC1(C(=O)NS(=O)(=O)C2CC2)CCCN(C(=O)c2ccccc2OC(F)(F)F)C1` (stereo not drawn)?
ClpP mod: 0.1%

How did NC(COCc1ccccc1)c1csc(Nc2cc(Oc3ccccc3)ncn2)n1 (stereo not drawn) do in these assays?
ClpP mod: 0.4%

What do the screens show for `COC(=O)C[C@H]1CC[C@H](NC(=O)Nc2ccccc2)[C@@H](CO)O1`?
ClpP mod: 1.0%

What do the screens show for `O=C1NC[C@H](CCCCN2C[C@H](Cc3ccc(O)cc3)N(CCc3ccc(O)cc3)C(=O)C2=O)N(CCc2ccc(O)cc2)C1=O`?
ClpP mod: 1.4%

How did COC(=O)C[C@H]1C=C[C@H](NC(=O)Nc2ccccc2)[C@@H](CO)O1 do in these assays?
ClpP mod: -1.8%

How did N#Cc1nc(N)nc(N2CCCCC2)n1 do in these assays?
ClpP mod: -1.3%

Results for Cc1cc(/C=C2\C=Cc3ccccc32)cc(C)c1N ?
ClpP mod: 2.7%

How did OCCC#Cc1ccc(N2C(c3ccsc3)=Cc3ccc(F)cc3C2c2c[nH]c3ccccc23)cc1 (stereo not drawn) do in these assays?
ClpP mod: 2.4%

What do the screens show for `OC[C@@H]1CN(Cc2cccnc2)C[C@H](n2cnc3c(N4CCOCC4)ncnc32)O1`?
ClpP mod: -0.6%

How did CC1(C(=O)NS(=O)(=O)c2cccc(Cl)c2)CCN1C(=O)C1(c2ccc(Cl)cc2)CCC1 (stereo not drawn) do in these assays?
ClpP mod: -3.0%

What do the screens show for `COc1cc(C(=O)C(=O)N2CCN(c3ccccc3)CC2)cc(OC)c1OC`?
ClpP mod: -0.8%

How did CCc1nc2ccc(C(=O)N3CCN(c4ccccc4)CC3)cn2c1N(C)CCC(C)C do in these assays?
ClpP mod: -11.6%

How did CN(C)c1ccc(/C=C2\C(=O)/C(=C/c3ccc(N(C)C)cc3)c3ccccc32)cc1 do in these assays?
ClpP mod: 1.1%

What do the screens show for `COc1ccc(-c2coc3c(C(=O)NCC(C)C)cccc23)c(C)c1`?
ClpP mod: -9.1%

How did COc1ccccc1-c1cccc(-c2nc(C(=O)Nc3nccs3)cc3c2[C@@H](CCO)N(C(=O)CC2CC2)C3)c1 do in these assays?
ClpP mod: -9.4%

Results for COc1cc(C(=O)N2CCCC(c3cc(C(=O)NCc4ccc(F)cc4)no3)C2)cc(OC)c1C (stereo not drawn) ?
ClpP mod: 0.6%

How did COc1cc(OC)c(/C=C/c2ccc3ccccc3[n+]2C)c(OC)c1 do in these assays?
ClpP mod: 0.2%

Next part; the last two above are carried over.
Results for COc1cc(C(=O)N2CCCC(c3cc(C(=O)NCc4ccc(F)cc4)no3)C2)cc(OC)c1C (stereo not drawn) ?
ClpP mod: 0.6%

How did COc1cc(OC)c(/C=C/c2ccc3ccccc3[n+]2C)c(OC)c1 do in these assays?
ClpP mod: 0.2%

What do the screens show for `CC(C)C[C@@H](CN1CCCC1CN1C(=S)NC[C@@H]1Cc1ccccc1)N1C[C@H](Cc2ccc(O)cc2)N(CCc2ccccc2)C1=S` (stereo partly drawn)?
ClpP mod: -2.2%

Results for COc1ccc(C(O)c2nc(-c3ccoc3)cs2)cc1 (stereo not drawn) ?
ClpP mod: -0.6%

How did CCc1nc2c(OCCC3CCCCC3)cccn2c1N(C)C(=O)CC(C)C do in these assays?
ClpP mod: -1.2%

What do the screens show for `COCCNC(=O)C1(C)CCN(C(=O)c2nc(C)oc2C)C1` (stereo not drawn)?
ClpP mod: 2.7%

How did CCCCc1c(-c2cccc(Cl)c2)ncn1CCc1ccccc1OC do in these assays?
ClpP mod: -0.7%

How did CCCCCCCCN1C(=O)[C@H](CC(=O)NCCCOCCCC)C[C@@]2(C(=O)OC)CC(C)(C)CC=C12 do in these assays?
ClpP mod: 1.1%

Results for OC[C@@H]1CN(Cc2ccc(-c3ccccc3)cc2)C[C@H](n2cnc3c(NCc4ccc(F)cc4)ncnc32)O1 ?
ClpP mod: -9.8%

How did Nc1cnccn1 do in these assays?
ClpP mod: 4.1%

What do the screens show for `COc1ccc(CNC(=O)c2sc(=O)n(Cc3cc(Cl)ccc3OC)c2C)cc1`?
ClpP mod: 3.0%

What do the screens show for `Nc1sc(-c2ccccc2)cc1C(=O)N1CCNCC1`?
ClpP mod: -5.0%

What do the screens show for `CC(C)n1c(=O)c2ccccc2n1Cc1cn(C2CCCC2)nn1`?
ClpP mod: 4.6%

What do the screens show for `COc1cc(C(O)c2nc(-c3ccccc3C)cs2)ccc1F` (stereo not drawn)?
ClpP mod: -0.9%

Results for Cc1cn(C2CC(O)C(O)C(CO)O2)c(=O)[nH]c1=O (stereo not drawn) ?
ClpP mod: 1.2%

Results for Cc1ccc(S(=O)(=O)N2CC(CO)=CCC2c2ccccc2)cc1 (stereo not drawn) ?
ClpP mod: -1.2%

How did Cc1cccc(C)c1NC(=O)C(c1ccccc1)n1c(=O)c(-c2cc3ccccc3[nH]2)nc2ccccc21 (stereo not drawn) do in these assays?
ClpP mod: 11.7%

How did CCCCCCC[n+]1ccc(C)c2ccccc21 do in these assays?
ClpP mod: -26.0%

How did CC1(C(=O)NS(=O)(=O)c2cccc(OC(F)F)c2)CCN1C(=O)c1ccccc1 (stereo not drawn) do in these assays?
ClpP mod: 2.2%

Results for O=C(Nc1cccc2cccnc12)c1ccc2sc([C@@H]3O[C@H](CO)[C@H](O)[C@H](O)[C@H]3O)nc2c1 ?
ClpP mod: -1.3%

What do the screens show for `Cn1nc(C(C)(C)C)cc1NC(=O)C1(C)CCN1C(=O)C1(c2ccccc2)CC1` (stereo not drawn)?
ClpP mod: -0.1%

Results for CCCCCNC(=O)C(C1CC1)n1c(=O)c(-c2cc3ccccc3[nH]2)nc2ccccc21 (stereo not drawn) ?
ClpP mod: 4.1%

Results for COC(=O)c1ccc(COc2cccn3c(N(C)C(=O)CCC4CCCC4)c(C)nc23)cc1 ?
ClpP mod: 1.3%

What do the screens show for `COc1ccccc1CCNC(=O)c1c(N)[nH]c(C(=O)c2ccccc2)c1-c1ccc(Br)cc1`?
ClpP mod: 2.4%

How did CC(=O)Nc1cccc(-c2cc(NC(C)=O)c3ncc(-c4ccccc4)n3c2)c1 do in these assays?
ClpP mod: 5.0%

What do the screens show for `COc1ccc(Cl)cc1-c1cc(C(=O)NC2CCCCC2)[nH]n1`?
ClpP mod: -1.3%

What do the screens show for `CCOC(=O)[C@]12CCC=C1N(Cc1ccccc1)C(=O)[C@H](CC(=O)NCc1cccc(C(F)(F)F)c1)C2`?
ClpP mod: -1.1%

What do the screens show for `COCCCNC(=O)C[C@@H]1C[C@@]2(C(=O)OC)CCCCC=C2N(CCc2ccc(OC)c(OC)c2)C1=O`?
ClpP mod: -2.3%

What do the screens show for `CCCCn1nnnc1C1(C)CCC(=O)N1CC1CCCCC1` (stereo not drawn)?
ClpP mod: 1.0%

What do the screens show for `COCc1cccc(-c2csc(C(N)c3ccc(F)c(F)c3)n2)c1` (stereo not drawn)?
ClpP mod: -4.5%

Results for C(=C\c1ccc2ccccc2n1)/c1ccc2ccccc2n1 ?
ClpP mod: 3.9%

Results for CCOC(=O)C1=CCC(c2cc3ccccc3[nH]2)NC1 (stereo not drawn) ?
ClpP mod: inconclusive

Results for CCCS(=O)(=O)NC(=O)C1(C)CCCN(C(=O)c2ccccc2OC(F)(F)F)C1 (stereo not drawn) ?
ClpP mod: 0.0%

How did COc1ccccc1-c1cnc(C(O)c2ccc(CN3CCCC3)cc2)[nH]1 (stereo not drawn) do in these assays?
ClpP mod: 0.3%

How did COc1cc(F)ccc1-c1cc(C(=O)NCc2cccs2)[nH]n1 do in these assays?
ClpP mod: -3.4%

What do the screens show for `CC(=O)NCCNC(=O)C1(C)Cc2c(-c3cccc(C(N)=O)c3)ccnc2O1` (stereo not drawn)?
ClpP mod: -11.0%

What do the screens show for `CCCNC(=O)C1(C)CCCN(Cc2cccc(Oc3ccccc3)c2)C1` (stereo not drawn)?
ClpP mod: 2.9%

How did C=CCOc1cccn2c(N(C)C(=O)c3ccccc3F)c(CC)nc12 do in these assays?
ClpP mod: -0.9%

What do the screens show for `Cc1ccc(Nc2ncnc3nc[nH]c23)cc1`?
ClpP mod: 0.9%

Results for CNc1cncc(-c2cccc(C(=O)NCCN(C)C)c2)n1 ?
ClpP mod: 5.0%

How did CC1(C(=O)Nc2ccc3[nH]ncc3c2)CCN1C(=O)CC(c1ccccc1)c1ccccc1 (stereo not drawn) do in these assays?
ClpP mod: 1.2%

What do the screens show for `COC(=O)/C=C/c1ccc2c(c1)S(=O)(=O)N(C1CCCC1)[C@H]2CC(=O)OC`?
ClpP mod: -5.6%

How did O=C(C(=O)N(C1CCCCC1)C1CCCCC1)c1ccccc1 do in these assays?
ClpP mod: -2.0%

Results for COc1ccc(CCN2C(=O)CCC3=C2CCC3=O)cc1OC ?
ClpP mod: 0.5%

What do the screens show for `CNC(=O)C1(C)CCN1C(=O)Cc1ccc(C(C)C)cc1` (stereo not drawn)?
ClpP mod: 0.1%

Results for COc1ccc(C#Cc2cccc(-c3nc(C(=O)NCCCN4CCOCC4)cc4c3[C@H](CCO)N(S(=O)C(C)(C)C)C4)c2)cc1OC (stereo partly drawn) ?
ClpP mod: -8.0%

Results for COc1cc2nc(N3CCN(C)CC3)nc(NC3CCN(C)CC3)c2cc1OC ?
ClpP mod: 4.0%

How did CC(=O)Nc1ccc(C(=O)N2CCCC(c3cc(C(=O)NCc4ccc(F)cc4)no3)C2)cc1 (stereo not drawn) do in these assays?
ClpP mod: -0.7%

How did O=C(NCc1ccccc1)C(c1ccccc1F)n1c(=O)c(-c2ccco2)nc2ccccc21 (stereo not drawn) do in these assays?
ClpP mod: 4.0%

How did CCCCc1c(-c2ccccc2OC)ncn1Cc1cccc(-c2ccccc2)c1 do in these assays?
ClpP mod: -29.1%

What do the screens show for `COCCN1C[C@@H](CO)O[C@@H](n2cnc3c(N(C)C(C)C)ncnc32)C1`?
ClpP mod: 2.1%

Of the compounds above, 12 contain an NH in an aromatic ring:
Results for C(=C\c1c[nH]c2ccccc12)/c1ccnc2ccccc12 ?
ClpP mod: -0.1%

How did OCCC#Cc1ccc(N2C(c3ccsc3)=Cc3ccc(F)cc3C2c2c[nH]c3ccccc23)cc1 (stereo not drawn) do in these assays?
ClpP mod: 2.4%

Results for Cc1cn(C2CC(O)C(O)C(CO)O2)c(=O)[nH]c1=O (stereo not drawn) ?
ClpP mod: 1.2%

How did Cc1cccc(C)c1NC(=O)C(c1ccccc1)n1c(=O)c(-c2cc3ccccc3[nH]2)nc2ccccc21 (stereo not drawn) do in these assays?
ClpP mod: 11.7%

Results for CCCCCNC(=O)C(C1CC1)n1c(=O)c(-c2cc3ccccc3[nH]2)nc2ccccc21 (stereo not drawn) ?
ClpP mod: 4.1%

What do the screens show for `COc1ccccc1CCNC(=O)c1c(N)[nH]c(C(=O)c2ccccc2)c1-c1ccc(Br)cc1`?
ClpP mod: 2.4%

What do the screens show for `COc1ccc(Cl)cc1-c1cc(C(=O)NC2CCCCC2)[nH]n1`?
ClpP mod: -1.3%

Results for CCOC(=O)C1=CCC(c2cc3ccccc3[nH]2)NC1 (stereo not drawn) ?
ClpP mod: inconclusive

How did COc1ccccc1-c1cnc(C(O)c2ccc(CN3CCCC3)cc2)[nH]1 (stereo not drawn) do in these assays?
ClpP mod: 0.3%

How did COc1cc(F)ccc1-c1cc(C(=O)NCc2cccs2)[nH]n1 do in these assays?
ClpP mod: -3.4%

What do the screens show for `Cc1ccc(Nc2ncnc3nc[nH]c23)cc1`?
ClpP mod: 0.9%

How did CC1(C(=O)Nc2ccc3[nH]ncc3c2)CCN1C(=O)CC(c1ccccc1)c1ccccc1 (stereo not drawn) do in these assays?
ClpP mod: 1.2%

Bioassay records (PubChem BioAssay)
